T cruzi inh: T. cruzi replication inhibition; 300,000 tested, 1.4% active; inhibition, % (test concentration not listed); T. cruzi beta-gal in NIH3T3, luminescence, 90 h;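 active = mean inhibition across valid replicates above about 55%, limit read from the data; inconclusive = mean below that limit but half or more replicates reach it; inactive = mean below it, under half of replicates reach it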;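 also: signal also drops with host cell toxicity which is not excluded here; 0% = plate median of DMSO wells and 100% = zero luminescence signal; higher percent means less beta-gal luminescence so fewer parasites; stock transfer was 50 nL into about 50 µL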
Beta2AR agonist: human beta-2 adrenergic receptor agonism by FAP | Am2.2-beta2AR cells, FAP receptor internalization, flow cytometry; reference of the scale not given here | P07550 | response, % (no concentration beside the values) | AID 504454 | 340,000 tested, 0.43% active;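 active = response above a set limit, near 3 SD of response in nonfluorescent compounds, cut at about 42% in these data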;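 also: stock transfer was 100 nL into about 11 µL; a reference agonist was the positive control; negative values mostly stem from fluorescent compounds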
A1 inh: inhibitors of the anti-apoptotic protein A1, read as caspase activation | MEF A1-2A-BIM cells, Caspase-Glo 3/7 luminescence, 3 h; percent of clofoctol response, vehicle zero | caspase activation, % (no concentration beside the values) | 330,000 tested, 0.066% active | AID 2462;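 active = over half of replicate activation scores above 10%, or exactly half above 10 with the replicate mean above 10; inconclusive = replicate mean below 10 yet half the replicates above 10; inactive = over half of replicates below 10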;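 also: wells of about 30 µL received 50 nL stock; many hits fall short of the cut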
Beta apoptosis: blocks beta cell apoptosis. INS-1E cytokine-induced death, ATP luminescence, 48 h; percent of positive-control rescue, neutral wells zero. protection from apoptosis, % (test concentration not listed). AID 435005. 300,000 tested, 0.8% active;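 active = all replicates at 75% or more, or half of them and the mean; inconclusive = half reach 75% but not the mean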;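 also: 0% = cytokine-treated negative control wells and 100% = positive control rescue; higher means more ATP so stronger rescue from cytokine killing; wells of about 40 µL received 100 nL stock; the first replicate is given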
ALR inh: inhibitors of human sulfhydryl oxidase ALR; P55789; purified ALR, DTT oxidation, H2O2 HRP-luminol luminescence; inhibition, % (no concentration beside the values); 290,000 tested, 3.8% active;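 active = mean and each replicate at 75% or more; inconclusive = only one of the two met; inactive = neither met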;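 also: stock transfer was 7.5 nL into about 7.5 µL; 0% = neutral wells and 100% = wells with inactivated enzyme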
LANA-H2B inh: blocks KSHV LANA binding to histone H2A/H2B; inhibition, % (concentration not given with the values); 320,000 tested, 0.6% active; Q9QR71; cell-free LANA-H2A/H2B peptide, fluorescence polarization; in the data active = inhibition mostly above about 10%, no sharp cut-off; inactive = mostly below about 6.7%;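 also: stock transfer was 7.5 nL into about 10 µL; 0% = median of vehicle wells and 100% = median of positive control wells; one replicate is shown; the record names a cut of 25% in any replicate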
Target sequence (Q9QR71 whole entry, looked up): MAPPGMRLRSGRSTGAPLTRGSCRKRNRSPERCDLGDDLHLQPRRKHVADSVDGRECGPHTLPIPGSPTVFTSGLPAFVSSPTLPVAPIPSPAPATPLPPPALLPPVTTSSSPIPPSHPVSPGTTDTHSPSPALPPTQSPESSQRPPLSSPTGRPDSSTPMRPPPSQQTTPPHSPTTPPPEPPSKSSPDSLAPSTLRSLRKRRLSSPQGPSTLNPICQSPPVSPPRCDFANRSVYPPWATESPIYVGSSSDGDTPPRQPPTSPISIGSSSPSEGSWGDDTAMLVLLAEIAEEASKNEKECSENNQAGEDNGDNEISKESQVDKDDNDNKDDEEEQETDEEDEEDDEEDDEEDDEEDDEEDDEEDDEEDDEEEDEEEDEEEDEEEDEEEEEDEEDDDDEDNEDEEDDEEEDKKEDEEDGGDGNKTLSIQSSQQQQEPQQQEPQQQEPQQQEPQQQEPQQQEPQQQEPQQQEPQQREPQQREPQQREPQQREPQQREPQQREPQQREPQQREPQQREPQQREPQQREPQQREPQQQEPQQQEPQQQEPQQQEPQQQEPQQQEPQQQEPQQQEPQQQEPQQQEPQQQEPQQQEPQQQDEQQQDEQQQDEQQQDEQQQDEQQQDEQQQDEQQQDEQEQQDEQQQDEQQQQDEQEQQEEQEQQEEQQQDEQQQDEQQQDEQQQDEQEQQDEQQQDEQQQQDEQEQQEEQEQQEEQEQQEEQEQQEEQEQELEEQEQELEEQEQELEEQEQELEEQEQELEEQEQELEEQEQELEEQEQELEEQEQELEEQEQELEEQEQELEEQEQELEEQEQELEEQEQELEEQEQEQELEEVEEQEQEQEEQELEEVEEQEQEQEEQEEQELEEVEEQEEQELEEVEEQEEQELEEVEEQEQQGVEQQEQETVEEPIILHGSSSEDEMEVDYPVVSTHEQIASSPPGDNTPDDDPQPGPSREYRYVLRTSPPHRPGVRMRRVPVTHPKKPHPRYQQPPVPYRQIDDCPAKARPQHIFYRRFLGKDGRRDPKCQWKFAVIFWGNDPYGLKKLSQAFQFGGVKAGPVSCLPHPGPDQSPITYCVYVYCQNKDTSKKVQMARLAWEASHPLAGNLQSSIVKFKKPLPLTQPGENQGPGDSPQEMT
Calb FLC: C. albicans growth modulation with fluconazole. AID 1979. C. albicans CaCi-2 (fluconazole-resistant clinical isolate) + fluconazole, Alamar Blue growth, 48 h. 300,000 tested, 0.57% active. growth inhibition, % (no concentration beside the values);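 active = most replicates above 75%; inconclusive = exactly half above 75%; inactive = most below 75%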;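 also: all wells also contain fluconazole at 8 µg/ml as a sub-toxic cotreatment; 0% = median of DMSO wells and 100% = median of geldanamycin control wells; wells of about 8 µL received 7.5 nL stock; the first replicate is given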
rRNA inh HTS: selective bacterial rRNA inhibition in E. coli; AID 720706; GFP signal change (wild-type ribosome), % (no concentration beside the values); E. coli WT GFP vs humanized-ribosome RFP mutants, fluorescence, 24 h; stronger effect = lower value; DMSO median 0, no signal -100; 350,000 tested, 1.6% active;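 active = significant combined selectivity score with lowered wild-type GFP, culture density cut under 30%, mutant RFP and density less affected; inactive = any of these conditions unmet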; also: one replicate is shown; some compounds called inactive have numbers as strong as hits
rRNA inh HTS OD600: recorded beside rRNA inh HTS, whose call it bears; OD600 change, %; measured here: OD600 growth;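 optical density of the mix in the first replicate; 0 = DMSO median and -100 = no signal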
rRNA inh HTS RFP: recorded beside rRNA inh HTS, whose call it bears; RFP signal change, %; measured here: RFP humanized mutant strains;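 first replicate; 0 = DMSO median and -100 = no signal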
* hit, by the source's call; ? = inconclusive; . = not tested or not shown; & = joins results of further samples. A portion of the library; the hit share may differ from the screen's.

SMILES | T cruzi inh | Beta2AR agonist | A1 inh | Beta apoptosis | ALR inh | LANA-H2B inh | Calb FLC | rRNA inh HTS | rRNA inh HTS OD600 | rRNA inh HTS RFP
O=C(O)CSc1ccc2nnc(-c3cccnc3)n2n1 | -5 | 0 | 0.6 | -8 | -2 | -1.4 | -6 | . | . | .
C#CCNC(=O)C1=C[C@@H](c2ccc(C(F)(F)F)cc2)C[C@@H](OCCCCO)O1 | 11 | -4 | 0.9 | -3 | -2 | -1.6 | -18 | 13 | 18 | 0.6
Cn1nnnc1SCc1ccc(F)cc1 | -1 | 3 | -0.2 | -5 | 5 | 4.3 | -30 | . | . | .
CCOC(=O)C1C(c2cccc(Cl)c2Cl)NC(=O)NC1(O)C(F)(F)F (configuration not stated) | -17 | 2 | -0.6 | -2 | -12 | 4.5 | -10 | . | . | .
C/C(N)=C(/C#N)C(=O)CSc1nc2ccccc2c(=O)n1-c1ccc(C)c(Cl)c1 | 0 | 4 | 0.3 | 26 | 3 | -0.6 | -6 | . | . | .
CC1(C)C(=O)OC(c2cccs2)C2(CCCCC2)C1=O (configuration not stated) | 3 | 2 | -0.4 | -12 | -4 | -4.6 | 13 | . | . | .
CNC(=O)CN(CCc1ccccc1)S(=O)(=O)c1ccc(OC)cc1 | 5 | -3 | 0.6 | -5 | -6 | -1.3 | ? | 13 | 4 | -3.1
CCC(C)C(N)C(=O)NC(CCC(=O)OCc1ccccc1)C(N)=O (configuration not stated) | 7 | -5 | 0.0 | -1 | 0 | 3.9 | -2 | 13 | 14 | 0.8
Cc1ccc(NC(=O)CCC(=O)OCC(F)(F)C(F)F)cc1 | -19 | -1 | 0.2 | -6 | -16 | -2.1 | 3 | . | . | .
CC(C)n1c(O)c(N=NC(=O)c2ccccc2NS(=O)(=O)c2cccs2)c2ccccc21 | 20 | -12 | -0.6 | -5 | -5 | -6.7 | 30 | . | . | .
Cc1cc(C)n2c(SCC(=O)Nc3cccc(S(N)(=O)=O)c3)nnc2n1 | . | -7 | 0.1 | -2 | . | 6.0 | . | 3 | 10 | -3.8
Cc1cc(C)n(-c2ccc(NC(=O)C3CCN(Cc4ccc(C)o4)CC3)cc2)n1 | 7 | 1 | 3.4 | -6 | 5 | 8.3 | 5 | 8 | 4 | 0.7
O=C(NN=C1CCCC1)c1cc(-c2ccccc2)n[nH]1 | -10 | -10 | 0.6 | -11 | 97* | -4.4 | 1 | . | . | .
Cc1ccc(C(=O)NCC2CCCO2)o1 (configuration not stated) | -7 | -3 | 0.6 | -6 | . | 4.5 | 4 | . | . | .
CNc1nc(N)c([N+](=O)[O-])c(Nc2ccccc2OC)n1 | -16 | 7 | 0.5 | . | . | -5.6 | -8 | -3 | 3 | -4.3
Cc1ccc(S(=O)(=O)N2CCOCC2)cc1C(=O)Nc1ccccn1 | 4 | -6 | 0.7 | 1 | . | 0.2 | -8 | . | . | .
O=C(Cn1c(C(=O)NCc2ccco2)cc2sccc21)c1ccccc1 | 24 | -7 | 0.0 | -5 | -55 | 0.5 | 35 | -23* | -8.4* | -1.4*
COc1ccc(CCNC(=O)C2CCCN(S(=O)(=O)c3ccc(F)cc3)C2)cc1 (configuration not stated) | -5 | -4 | 0.2 | -2 | -3 | 5.5 | 8 | -5 | -2 | -3.3
COc1cccc(-c2n[nH]c(=S)n2Cc2ccco2)c1OC | 2 | -2 | 0.5 | -9 | 87* | -9.9 | 9 | -2 | 4 | 2.5
O=C(CCn1nnc2ccccc21)N1CCC(O)(c2cccc(F)c2)CC1 | -9 | 9 | 1.3 | -5 | -10 | 5.9 | -7 | . | . | .
O=C(OCCN1CCCCC1)c1ccccc1Br | 3 | 4 | -0.3 | -2 | -1 | -2.4 | -3 | 19 | 14 | 0.5
O=C(Cc1cccs1)Nc1ccc(F)cc1 | -6 | -3 | 0.9 | . | -2 | 4.4 | -4 | 6 | 7 | -1.7
Cc1cc(NC(=O)CSc2nc3sc(C)c(C)c3c(=O)n2C2CCCC2)no1 | 18 | 1 | 1.9 | 39 | 2 | -4.8 | -5 | 8 | 8 | -0.4
Cc1noc(C)c1NC(=O)Nc1ccc2c(c1)C(=O)N([C@H](C)CO)C[C@H](C)[C@@H](CN(C)S(C)(=O)=O)O2 | . | 3 | 0.5 | -5 | . | 7.2 | . | 0&7 | 9&14 | -1.6&0.1
C=CCn1c(SCC(=O)Nc2ccc3c(c2)OCO3)nnc1-c1ccccc1O | 18 | -13 | 0.8 | 4 | -1 | -3.9 | -5 | . | . | .
CC1=C(C(=O)OCc2ccccc2)C(c2ccccc2OS(=O)(=O)c2ccc([N+](=O)[O-])cc2)NC(=O)N1CCCC(=O)O (configuration not stated) | 26 | -8 | 0.9 | -1 | -22 | 3.5 | 11 | 2 | 8 | -5.5
CC(=O)N1CCc2cc(N=NC3=C(O)CC(C)(C)CC3=O)ccc21 | 5 | -37 | -0.7 | 0 | -6 | -1.9 | 7 | -15 | -5 | 0.0
Cc1cccc(NC(=O)CC2(CC(=O)O)CCCC2)c1 | 1 | -5 | -0.6 | 2 | -1 | -5.5 | -3 | 3 | 6 | -0.9
Cc1cc(C)nc(CCNC(=O)CC2C(=O)NCCN2Cc2ccccc2)n1 (configuration not stated) | -19 | 2 | 0.4 | -1 | 0 | -0.3 | 0 | 3 | 7 | 0.7
Cc1ccc(-c2csc3ncnc(NCCC(=O)O)c23)cc1 | 3 | 7 | -0.4 | -3 | 4 | 0.7 | 2 | -10 | -15 | -1.0
CCC1(C)Cc2c(sc3nc(NC)n(C)c(=O)c23)CO1 (configuration not stated) | 0 | 1 | -0.1 | -3 | 60 | -1.0 | 4 | . | . | .
Cc1ccc(C)c(N(CC(=O)Nc2cc(Cl)ccc2Oc2ccccc2)S(C)(=O)=O)c1 | 34 | -8 | -0.8 | 60 | -28 | -4.3 | 0 | . | . | .
Cc1ccc(NC(=O)CN2CCN(C)CC2)cc1Br | 24 | -3 | . | . | . | . | 1 | 6 | 3 | -0.3
O=C(/C=C/c1ccc(Cl)cc1)N(Cc1ccccc1)c1ccccn1 | 19 | -7 | 1.6 | 8 | -3 | -2.2 | ? | -1 | -5 | 0.4
O=C(NNC(=O)c1cccs1)c1ccc(Cl)c(Cl)c1 | 17 | -2 | -1.4 | 0 | -12 | 2.8 | 40 | 9 | 7 | 1.5
CCn1cc(C(=O)NCc2ccncc2)c(=O)c2cc(F)c(N3CCN(C(=O)c4ccco4)CC3)cc21 | -3 | 8 | 0.4 | 4 | -7 | 4.3 | 23 | . | . | .
COC(=O)c1[nH]c2ccccc2c1NC(=O)/C=C/c1ccc2c(c1)OCO2 | -8 | -7 | -0.1 | -5 | -2 | 0.5 | 3 | -1 | 20 | -7.9
C=CCN1C(=O)CN=C1Nc1ccccc1 | -20 | 2 | -1.0 | 5 | -7 | -5.7 | -2 | . | . | .
Cn1c(=O)c2c(-c3ccccc3)n(N3CCOCC3)cc2n(C)c1=O | 13 | 2 | -0.1 | 5 | 2 | 3.1 | -4 | . | . | .
O=C(OC1CCN(c2ccc([N+](=O)[O-])cc2)CC1)c1ccccc1 | -32 | -6 | 0.4 | 4 | . | -6.3 | -21 | . | . | .

In a second layout: entries from further up
canonical_smiles,T cruzi inh,Beta2AR agonist,A1 inh,Beta apoptosis,ALR inh,LANA-H2B inh,Calb FLC,rRNA inh HTS,rRNA inh HTS OD600,rRNA inh HTS RFP
CC(=O)N1CCc2cc(N=NC3=C(O)CC(C)(C)CC3=O)ccc21,5,-37,-0.7,0,-6,-1.9,7,-15,-5,0.0
CCn1cc(C(=O)NCc2ccncc2)c(=O)c2cc(F)c(N3CCN(C(=O)c4ccco4)CC3)cc21,-3,8,0.4,4,-7,4.3,23,.,.,.
Cc1cccc(NC(=O)CC2(CC(=O)O)CCCC2)c1,1,-5,-0.6,2,-1,-5.5,-3,3,6,-0.9
CCC1(C)Cc2c(sc3nc(NC)n(C)c(=O)c23)CO1 (configuration not stated),0,1,-0.1,-3,60,-1.0,4,.,.,.
Cc1ccc(NC(=O)CN2CCN(C)CC2)cc1Br,24,-3,.,.,.,.,1,6,3,-0.3
O=C(OC1CCN(c2ccc([N+](=O)[O-])cc2)CC1)c1ccccc1,-32,-6,0.4,4,.,-6.3,-21,.,.,.

The list goes on:
SMILES | T cruzi inh | Beta2AR agonist | A1 inh | Beta apoptosis | ALR inh | LANA-H2B inh | Calb FLC | rRNA inh HTS | rRNA inh HTS OD600 | rRNA inh HTS RFP
Clc1ccc(-c2cnc3ccccc3n2)cc1 | -19 | 0 | -7.1 | 0 | -5 | -0.5 | -2 | . | . | .
Cc1ccccc1S(=O)(=O)Cc1ccc(C(=O)NC2CCCCC2)o1 | 13 | 2 | 0.4 | 8 | -16 | 0.6 | 5 | -2 | 6 | -3.0
Nc1nc(NC(=O)/C=C\C(=O)O)nn1-c1ccccc1 | -3 | -5 | 0.2 | -4 | 1 | 9.4 | 23 | 19 | 14 | -0.5
CSC(C1CCCC1)n1nnc2ccccc21 (configuration not stated) | -1 | 1 | -0.2 | 2 | 3 | -1.5 | 8 | -2 | 10 | -6.0
CNC(=O)/C(C#N)=C/c1ccc(-c2ccc(Cl)cc2)o1 | 14 | 0 | 2.4 | 15 | -2 | 1.6 | ? | 5 | 1 | 3.7
O=C(Nc1nc2cc3c(cc2s1)OCCO3)c1ccc(N2C(=O)CCC2=O)cc1 | -1 | 9 | -0.9 | -4 | 2 | 1.9 | 1 | -22 | -33 | 2.3
CCCCOC(=O)CSc1n[nH]c(=O)[nH]c1=O | -4 | -3 | -0.2 | -6 | -3 | 0.4 | 9 | . | . | .
O=C(O)Cc1ccc(NC(=O)Nc2ccc3c(c2)OCO3)cc1 | -14 | 2 | -0.6 | -7 | -18 | 4.2 | 1 | 7 | 14 | 1.4
CC12CCCCC1NS(=O)(=O)OC2 (configuration not stated) | -7 | -1 | 3.7 | -3 | 1 | -4.3 | -5 | . | . | .
Cc1cc(C)n2nc(SCC(=O)Nc3ccc(F)cc3)nc2n1 | -8 | -11 | 1.8 | 2 | -3 | 3.3 | -3 | 5 | 3 | -0.7
CCCNc1c(NS(=O)(=O)c2ccc(C(C)(C)C)cc2)c(=O)oc2ccccc12 | -11 | -3 | -0.5 | -3 | -5 | -5.4 | 2 | 11 | 12 | 0.1
O=C(/C=C1\NCC2c3ccccc3CCN2C1=O)c1ccccc1 (configuration not stated) | 0 | 3 | 0.5 | -12 | 0 | 0.5 | -3 | . | . | .
NC(=O)C1=C[C@H](c2csc3ccccc23)C[C@H](OCCCCO)O1 | -16 | 6 | 0.3 | -6 | -31 | 3.5 | 1 | 7 | 13 | 2.1
CCOc1ccccc1NC(=S)NCc1ccco1 | -14 | -1 | -0.4 | -8 | 9 | 11 | 7 | . | . | .
CC(=O)NCCNC(=O)C1CCC(CNc2nc(=S)[nH]c3ccccc23)CC1 (configuration not stated) | 2 | 3 | 0.1 | -12 | 2 | 3.0 | 3 | 13 | 13 | -1.1

Source: PubChem (several laboratories)
